Screening results deposited in PubChem BioAssay by National Center for Advancing Translational Sciences (NCATS).
ClpP mod = qHTS Assay for Activators of ClpP | purified B. subtilis ClpP, FRET peptide cleavage, 20 min | ATP-dependent Clp protease proteolytic subunit (Bacillus subtilis (strain 168)), P80244 | AID 651965, 2013 | hit rate 1.9% among 340,000 | Potency, µM (highest dose often 57.5 µM), inactives show at the highest dose activity change, negative = active; active = well fitted falling curve with a large enough effect; inconclusive = small, poorly fitted or top-dose-only effect; inactive = no such curve, though single readings can be large or run the other way; also: potency is read from the fitted curve at half-maximal effect; the source files actives as falling curves though it sought activators and does not explain the sign; nearly all actives have a fitted effect of over 65% in size; many hits overshoot -100%
Target sequence (P80244 whole entry, looked up): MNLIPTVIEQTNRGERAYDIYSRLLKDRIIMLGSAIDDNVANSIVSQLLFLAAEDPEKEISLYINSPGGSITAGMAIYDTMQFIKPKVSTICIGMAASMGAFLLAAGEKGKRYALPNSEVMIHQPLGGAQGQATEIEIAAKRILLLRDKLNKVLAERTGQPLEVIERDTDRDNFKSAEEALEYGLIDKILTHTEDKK
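Purified B. subtilis ClpP, 10 microg/mL final in Tris/HCl pH8 with KCl, BSA, glycerol and Tween-20, cleaved an Abz/nitrotyrosine-quenched decapeptide. Fluorescence (ex 320, em 430) was read at 0 and 20 min at room temperature. Delta was normalized to 5.8 microM ADEP and DMSO/no-enzyme controls.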
D2 PAM = potentiates the human D2 dopamine receptor allosterically; potentiation, % (concentration not given with the values); P14416; DiscoveRx D2 beta-arrestin cells, luminescence, 90 min; 100% = 57 uM dopamine signal; hit rate 0.23% among 360,000; AID 624464; active = potentiation of 50% or more; inconclusive = 30% to 50%; inactive = 30% or less;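 also: compound concentration not given in the record; tested on top of an EC20 dose of dopamine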
Target sequence (P14416 whole entry, looked up): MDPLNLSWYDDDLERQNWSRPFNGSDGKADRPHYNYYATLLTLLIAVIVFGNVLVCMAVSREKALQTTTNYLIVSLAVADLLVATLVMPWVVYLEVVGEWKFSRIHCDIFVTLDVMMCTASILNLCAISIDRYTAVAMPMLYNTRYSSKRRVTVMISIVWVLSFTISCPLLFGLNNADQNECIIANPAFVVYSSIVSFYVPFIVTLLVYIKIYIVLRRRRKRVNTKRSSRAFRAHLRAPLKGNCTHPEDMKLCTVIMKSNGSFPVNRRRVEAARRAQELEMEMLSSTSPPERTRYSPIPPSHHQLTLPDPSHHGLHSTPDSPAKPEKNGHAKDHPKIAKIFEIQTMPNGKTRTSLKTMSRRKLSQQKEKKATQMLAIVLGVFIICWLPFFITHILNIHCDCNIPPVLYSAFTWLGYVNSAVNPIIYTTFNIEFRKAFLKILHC
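PathHunter beta-arrestin assay in DiscoveRx D2 cells. Compounds were added with an EC20 of dopamine (50 nM final) for 90 min at 37 deg C. Luminescence was read 1 h after detection reagent, with 57 uM dopamine as the EC100 control.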
Menin-MLL FL inh = inhibitors of human menin-MLL interaction, wild-type MLL peptide; Fluorescence polarization, fluorescein-MLL peptide displacement from menin; FP activity change, % at 61.4 µM; 290,000 tested, under 10 active; AID 1766; inconclusive = falling polarisation curve, or a change in total fluorescence; inactive = total fluorescence flat and polarisation flat or rising; no compound was filed as active; the % refers to the polarisation; negative = inhibition;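 also: % of control where 0% means no effect; inhibitors lower the polarisation; unlabelled MLL peptide was the positive control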
TRPV1 potentiator = potentiators of human vanilloid receptor 1 (TRPV1). Q8NER1. potentiation, % at 8.33 µM. TRPV1-expressing cells, Fluo-8 calcium influx, capsaicin EC20 potentiation; host cell line not named in the record; control for the full effect not named in the record. hit rate 0.02% among 320,000; active means potentiation above 80%; inconclusive means 30% to 80%; inactive means below 30%; also: 0% is about no effect
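TRPV1-expressing cells were cultured overnight at 35.5C and loaded with Fluo-8 calcium dye for 40 to 90 min at room temperature. After a 10 s baseline, compound was added and calcium influx was read kinetically for 3 min (ex 480/em 520 nm).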
Sfp inh = blocks B. subtilis Sfp PPTase activity; Biochemical Sfp PPTase activity, qHTS; Potency, µM, without a hit: max response, negative = inhibition, actives largely listed as inhibitors; hit rate 3.5% among 310,000; active = well fitted inhibition curve with a large enough effect; inconclusive = small, poorly fitted or top-dose-only effect, or another doubt; inactive = no such curve, though single readings can be large or run the other way;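 also: the enzyme is Sfp with the accession as filed and its product quenches rhodamine fluorescence; potency is read from the fitted curve at half-maximal effect; 0% = enzyme reaction without inhibitor and -100% = no enzyme wells; top concentration of the series not given in the record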
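After 15 min at room temperature with compound, 15 nM Sfp received 5 uM rhodamine-CoA plus 12.5 uM BHQ-2-ybbR (50 mM Hepes pH 7.6, 10 mM MgCl2). Rate came from the fluorescence difference over 30 min, ex 525/em 598 nm.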
gsp antagonist = gsp mutant antagonism. gsp-mutant cells, cAMP HTRF, 30 min; control for the full effect not named in the record. Potency, µM (highest dose often 76.9 µM), without a hit: top-dose activity change, negative = inhibition, most hits filed as inhibitors. hit rate 0.4% among 340,000; active = falling curve of any shape with a large fitted effect; inconclusive = falling curve, mostly with a smaller effect; inactive = flat or rising curve; cell line not stated here;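 also: intracellular cAMP measured with PDE inhibitor Ro 20-1724 present during compound exposure; potency is read from the fitted curve at half-maximal effect; % is scaled to controls: 0 for no effect and ±100 for the full control effect; nearly all actives have a fitted effect of over 65% in size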
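Cells in G418 medium, seeded 16-24 h, 37C; buffer exchange to DPBS + 1 mM CaCl2, 0.5 mM MgCl2, 0.05% BSA; cpds in DMSO + […] (300 uM stock), 30 min 37C; HTRF cAMP detection.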
gsp agonist = agonists of gsp mutant (McCune-Albright syndrome); gsp mutant cells, cAMP HTRF, 30 min; control for the full effect not named in the record; Potency, µM (highest dose often 76.9 µM), without a hit: at the highest dose activation (cAMP increase), usual class: activators; hit rate 0.13% among 340,000; active = well fitted activation curve with a large enough effect; inconclusive = small, poorly fitted or top-dose-only effect, or another doubt; inactive = no such curve, though single readings can be large or run the other way; cell line not stated here;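 also: phosphodiesterase inhibitor Ro 20-1724 added with compounds to block cAMP breakdown; potency is read from the fitted curve at half-maximal effect; nearly all actives have a fitted effect of over 60% in size; about a fifth of the inactives were tested at one dose only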
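Cells in DMEM/10% FBS with G418 were pretreated with compounds in DMSO plus […] (300 uM stock) for 30 min at 37C. cAMP was measured by HTRF (cAMP-d2 plus anti-cAMP antibody-K) after 30 min at room temperature.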
Numbers without * were called inactive; [ ] = another dose, or the depositor's remark. Not a hit list; 5.1% or so of the library scored in one or more.

Results for Cc1sc2nc(SCC(=O)C(C)(C)C)n(Cc3ccco3)c(=O)c2c1C ?
ClpP mod: -3.3%; D2 PAM: -14; Menin-MLL FL inh: -1.1; TRPV1 potentiator: -8; Sfp inh: -15%; gsp antagonist: 2%; gsp agonist: -3%

How did O=C(N/N=C/c1cccc2ccccc12)c1cccc(F)c1 do in these assays?
ClpP mod: -4.8%; D2 PAM: -29; Menin-MLL FL inh: -5.0; TRPV1 potentiator: -4; Sfp inh: -9%; gsp antagonist: -2%; gsp agonist: inconclusive

What do the screens show for `CC(C)CN(C(=O)c1cc(Cl)nc2ccccc12)C1CCS(=O)(=O)C1` (stereo not given)?
ClpP mod: -3.0%; D2 PAM: -12; TRPV1 potentiator: 2; gsp antagonist: 4%; gsp agonist: -24%

How did O=S(=O)(c1ccc(N2CC=C(c3ccccc3)CC2)nc1)N1CCCC1 do in these assays?
ClpP mod: -21%; D2 PAM: -11; Menin-MLL FL inh: 6.8; TRPV1 potentiator: 3; Sfp inh: 2%; gsp antagonist: 10%; gsp agonist: 11%

Results for O=Nc1ccc(NOC(=O)c2ccccc2)cc1 ?
ClpP mod: -1.6%; D2 PAM: 12; Menin-MLL FL inh: 8.1; TRPV1 potentiator: -6; Sfp inh: 1%; gsp antagonist: 2%; gsp agonist: -29%

How did Cc1nc2ccc(Cl)cc2c(-c2ccccc2Cl)c1CC(=O)O do in these assays?
ClpP mod: -1.0%; D2 PAM: -3; Menin-MLL FL inh: 2.5; TRPV1 potentiator: 10; Sfp inh: 17%; gsp antagonist: -3%; gsp agonist: -19%

Results for O=C(NCCc1ccccc1)C(NS(=O)(=O)c1cccc2nsnc12)c1ccccc1 (stereo not given) ?
ClpP mod: -4.6%; D2 PAM: -10; Menin-MLL FL inh: -0.4; TRPV1 potentiator: 15; Sfp inh: -1%; gsp antagonist: 1%; gsp agonist: 3%[15.4 µM]

How did COc1ccc(C2SCCN2C(=S)Nc2cccc(C(F)(F)F)c2)cc1 (stereo not given) do in these assays?
ClpP mod: 0.2%; D2 PAM: -24; Menin-MLL FL inh: 0.5; TRPV1 potentiator: 2; Sfp inh: 6%; gsp antagonist: 13%; gsp agonist: 19%

Results for CCOC(=O)N1CCN(C(=O)/C(=C/c2ccc(Cl)cc2)NC(=O)c2ccccc2)CC1 ?
ClpP mod: -7.0%; D2 PAM: 0; Menin-MLL FL inh: -0.1; TRPV1 potentiator: 4; Sfp inh: 22%; gsp antagonist: 5%; gsp agonist: -28%

What do the screens show for `COc1ccc(-c2csc(NC(=O)CS(=O)(=O)c3ccccc3)n2)cc1OC`?
ClpP mod: 0.3%; D2 PAM: -8; gsp agonist: 0%

What do the screens show for `CCn1ncc(/C=C/C(=O)Nc2c(C)nn(Cc3ccc(Cl)cc3Cl)c2C)c1C`?
ClpP mod: -1.1%; D2 PAM: -8; Menin-MLL FL inh: 6.4; TRPV1 potentiator: 10; Sfp inh: 3%; gsp antagonist: -20%; gsp agonist: 4%

Results for COc1ccc(N=C(C)C2=C(O)COC2=O)cc1 ?
ClpP mod: -0.9%; D2 PAM: -4; Menin-MLL FL inh: 4.2; TRPV1 potentiator: -19; Sfp inh: 7%; gsp antagonist: 0%; gsp agonist: -4%

What do the screens show for `CCCc1cc(=O)oc2cc(OCC(=O)NC3CC(C)(C)NC(C)(C)C3)ccc12`?
ClpP mod: 3.0%; D2 PAM: -1; Menin-MLL FL inh: 2.5; TRPV1 potentiator: 5; Sfp inh: 13%; gsp antagonist: 0%; gsp agonist: inconclusive

Results for COC(=O)CCC(=O)Nc1ccc(Cl)c(Cl)c1 ?
ClpP mod: -2.8%; D2 PAM: -13; Menin-MLL FL inh: 3.3; TRPV1 potentiator: -12; Sfp inh: 7%; gsp antagonist: -5%; gsp agonist: -10%

Results for O=C(C1=NN[C@@H]2C(=O)N(c3cccc(C(F)(F)F)c3)C(=O)[C@H]12)c1ccc2ccccc2n1 ?
ClpP mod: -0.2%; D2 PAM: -20; Menin-MLL FL inh: 15; TRPV1 potentiator: -1; Sfp inh: 2%; gsp antagonist: 2%; gsp agonist: 1%

How did COc1cccc(NC(=O)CN2CCCCCC2)c1 do in these assays?
ClpP mod: -1.4%; D2 PAM: -3; Menin-MLL FL inh: -4.9; TRPV1 potentiator: 2; Sfp inh: -6%; gsp antagonist: 9%; gsp agonist: -5%

What do the screens show for `Cc1ccc(NC(=O)/C(=C\c2ccccc2)NC(=O)c2ccco2)cc1`?
ClpP mod: 9.4%; D2 PAM: -15; Menin-MLL FL inh: 4.5; TRPV1 potentiator: 3; Sfp inh: 12%; gsp antagonist: -5%; gsp agonist: 1%[15.4 µM]

How did CCC1=NN(C(=O)c2cccc(Br)c2)C(O)(c2ccc(Br)cc2)C1 (stereo not given) do in these assays?
ClpP mod: -1.5%; D2 PAM: -6; Menin-MLL FL inh: 23; TRPV1 potentiator: 4; Sfp inh: -9%; gsp antagonist: -18%; gsp agonist: 5%

Results for O=C(CNC(=O)c1ccccn1)N/N=C/c1ccc2c(c1)OCO2 ?
D2 PAM: -9; Menin-MLL FL inh: -1.3; TRPV1 potentiator: -2; Sfp inh: 12%; gsp antagonist: 3%; gsp agonist: 0%[15.4 µM]

Results for O=C1/C(=C/c2cccc(Cl)c2)CSc2sccc21 ?
ClpP mod: 0.6%; D2 PAM: -4; Menin-MLL FL inh: 0.9; TRPV1 potentiator: -3; Sfp inh: 10%; gsp antagonist: -17%; gsp agonist: -1%[15.4 µM]

What do the screens show for `CC1CCN(C2=NC(=O)/C(=C/c3ccc(O)cc3)S2)CC1`?
ClpP mod: -20%; D2 PAM: -20; Menin-MLL FL inh: inconclusive; TRPV1 potentiator: -12; Sfp inh: 14%; gsp antagonist: -6%; gsp agonist: -8%[15.4 µM]

How did CCC1=C(OC(=O)c2ccccc2)C(C)(C)C(c2ccccc2)OC1=O (stereo not given) do in these assays?
ClpP mod: 0.8%; D2 PAM: -14; Menin-MLL FL inh: 4.2; TRPV1 potentiator: -15; Sfp inh: 8%; gsp antagonist: -4%[15.4 µM]; gsp agonist: -1%

How did Cc1ccc(S(=O)(=O)N2CCC3(CC2)CC(=O)c2ccccc2O3)cc1 do in these assays?
D2 PAM: 1; TRPV1 potentiator: -2; gsp antagonist: -8%; gsp agonist: -7%[15.4 µM]

What do the screens show for `C#CCOCCOCCOCCNc1nc(N2CCN(C(=O)CCCCCCCCCCNC(=O)[C@@H](CCC(=O)O)n3cc(CCCCCN)nn3)CC2)nc(N2CCN(C(=O)CCCCCCCCCCNC(=O)[C@H](CO)n3cc(CCCCCN)nn3)CC2)n1`?
ClpP mod: 2.5%; D2 PAM: -9; TRPV1 potentiator: -26; gsp antagonist: 4%

Results for COc1ccc(-c2csc(C3=C(O)CN(Cc4ccc(Cl)cc4)C3=N)n2)cc1OC ?
ClpP mod: -1.3%; D2 PAM: -21; Menin-MLL FL inh: 1.4; TRPV1 potentiator: 1; Sfp inh: 12%; gsp antagonist: -4%; gsp agonist: 3%

How did CN(CCc1ccccc1)C(=O)c1ccc(NC(=O)Cc2cccc(NC(=O)C3CCN(C(=O)C4CCCC4)CC3)c2)cc1 do in these assays?
ClpP mod: -1.2%; D2 PAM: -4; gsp antagonist: -4%

Results for Cc1nc(SCC(=O)c2ccc(Cl)s2)c2oc3ccccc3c2n1 ?
ClpP mod: 0.2%; D2 PAM: -3; Menin-MLL FL inh: 6.2; TRPV1 potentiator: 1; Sfp inh: 19%; gsp antagonist: 18%; gsp agonist: inconclusive

What do the screens show for `CCOC(=O)NC1(NC2CCCCC2)Oc2ccccc2O1`?
ClpP mod: -0.5%; D2 PAM: 5; Menin-MLL FL inh: -1.0; TRPV1 potentiator: inconclusive; Sfp inh: 56µM*; gsp antagonist: 1%; gsp agonist: 1%

How did Cc1nnc(-c2cccc(Br)c2)c2cn(-c3ccccc3)nc12 do in these assays?
ClpP mod: -1.0%; D2 PAM: -1; Menin-MLL FL inh: 0.2; TRPV1 potentiator: -15; Sfp inh: -14%; gsp antagonist: -16%; gsp agonist: -3%

What do the screens show for `CN1CCN(Cc2cccc3ncccc23)CC1CCO` (stereo not given)?
D2 PAM: -8; Menin-MLL FL inh: 2.1; TRPV1 potentiator: -2; Sfp inh: -2%; gsp antagonist: -8%; gsp agonist: -7%

How did C=CCN1CN=C(NS(=O)(=O)c2ccc(NC(C)=O)cc2)NC1 do in these assays?
ClpP mod: -1.4%; D2 PAM: -3; Menin-MLL FL inh: 0.9; TRPV1 potentiator: -3; Sfp inh: 18%; gsp antagonist: 11%; gsp agonist: 3%

Results for CCc1cc(=O)oc2cc(C)cc(OC(=O)c3ccco3)c12 ?
ClpP mod: -0.9%; D2 PAM: -26; Menin-MLL FL inh: 3.2; TRPV1 potentiator: 7; Sfp inh: 8%; gsp antagonist: 19%; gsp agonist: -2%

How did CC(=O)c1ccc(N2CCN(C(C)C(=O)Nc3ccc4c(c3)OCCO4)CC2)cc1 (stereo not given) do in these assays?
ClpP mod: -0.5%; D2 PAM: -12; gsp antagonist: -18%; gsp agonist: -6%

What do the screens show for `Cc1ccc(Cl)cc1NC(=O)CC(O)(C(F)(F)F)C(F)(F)F`?
ClpP mod: -0.4%; D2 PAM: -13; Menin-MLL FL inh: 1.3; TRPV1 potentiator: 10; Sfp inh: 14%; gsp antagonist: -21%; gsp agonist: inconclusive

What do the screens show for `O=c1[nH]c(-c2ccc(Cl)cc2)cs1`?
D2 PAM: -3; Menin-MLL FL inh: -2.3; TRPV1 potentiator: -7; Sfp inh: 3%; gsp antagonist: 4%; gsp agonist: 4%[15.4 µM]
